# SARS PLpro yeast – blocks SARS-CoV papain-like protease in a yeast assay | S. cerevisiae expressing SARS-CoV PLpro, growth rescue; control for the full effect not named in the record | Potency, µM (titrated, usually from 32.9 µM), for inactives: at the highest dose activity, positive = growth rescue | actives 0.19% (n = 330,000) | AID 485353; note: 0% is about no effect; nearly all actives have a fitted effect of over 55% in size; growth read by luminescence after 48 h
# Cruzain inh noDet – blocks cruzain activity in detergent-free assay; purified cruzain, Z-FR-AMC fluorescence, no detergent; actives 2.3% (n = 200,000); P25779; Potency, µM, for inactives: max response, negative = inhibition, most hits filed as inhibitors; active = well fitted curve in the direction sought with a large enough effect; inconclusive = small, poorly fitted or top-dose-only effect, or another doubt; inactive = no such curve, though single readings can be large; an effect the other way counts as inactive or inconclusive;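 note: plate controls were enzyme without inhibitor for no effect and buffer without enzyme for full effect; nearly all actives have a fitted effect of over 40% in size; top concentration of the series not given in the record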
# Target sequence (P25779 123-467 limits assumed): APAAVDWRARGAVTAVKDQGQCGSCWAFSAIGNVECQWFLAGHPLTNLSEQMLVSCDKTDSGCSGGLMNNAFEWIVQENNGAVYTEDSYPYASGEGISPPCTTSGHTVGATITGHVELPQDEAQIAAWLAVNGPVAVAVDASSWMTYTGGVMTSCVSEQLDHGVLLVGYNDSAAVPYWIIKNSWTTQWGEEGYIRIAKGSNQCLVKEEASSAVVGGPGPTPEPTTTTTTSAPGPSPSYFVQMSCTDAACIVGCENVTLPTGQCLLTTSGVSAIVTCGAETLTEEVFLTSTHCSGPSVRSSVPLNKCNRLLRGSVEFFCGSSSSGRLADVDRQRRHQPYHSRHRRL
#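 Detergent-free condition (0.00005% Triton X-100) in acetate buffer pH 5.5 with DTT. 1.5 nM enzyme and compound were pre-mixed 15 min, then 2 uM Z-FR-AMC substrate added; reaction progress from fluorescence change between first and third reads (60 s).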
# Cruzain inh Det – inhibitors of Trypanosoma cruzi cruzain with detergent. AID 1478. Potency, µM, without a hit: max response, negative = inhibition, most hits filed as inhibitors. purified cruzain, Z-FR-AMC fluorescence, 0.01% Triton. actives 0.43% (n = 200,000). P25779; active = well fitted curve in the direction sought with a large enough effect; inconclusive = small, poorly fitted or top-dose-only effect, or another doubt; inactive = no such curve, though single readings can be large; an effect the other way counts as inactive or inconclusive;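 note: plate controls were neutral wells for no effect and buffer without enzyme for full effect; nearly all actives have a fitted effect of over 40% in size; top concentration of the series not given in the record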
#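 Cruzain (1.5 nM) preincubated 15 min at RT with compound in 100 mM sodium acetate pH 5.5, 5 mM DTT, 0.01% Triton X-100. Reaction started with 2 uM Z-FR-AMC; AMC fluorescence (ex 360/em 450 nm) change over 60 s gave rate.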
# 2A StopGo – FMDV 2A StopGo reporter, luciferase signal; human cells with a luciferase reporter of 2A StopGo recoding; control for the full effect not named in the record; Potency, µM (titrated, usually from 57.9 µM), for the others: at the top dose signal change, negative = less light; actives 1.2% (n = 410,000); active = well fitted falling curve with a large enough effect; inconclusive = small, poorly fitted or top-dose-only effect; inactive = no such curve, though single readings can be large or run the other way; tested in HEK293T cells; note: % is set by controls: 0 for no effect and ±100 for the full control effect; nearly all actives have a fitted effect of over 45% in size; luciferase light after 4 h
# MARV entry inh – blocks Marburg virus binding to or entry into cells. actives 1.8% (n = 300,000). Potency, µM (highest dose often 37.8 µM), for inactives: at the top dose activity change, negative = inhibition, hits mostly inhibitors. AID 540276. Marburg virus pseudotyped entry inhibition, cell reporter; control for the full effect not named in the record; about a third of the inactives were read at about 46 µM; active = well fitted inhibition curve with a large enough effect; inconclusive = small, poorly fitted or top-dose-only effect, or effect the other way; inactive = flat fitted curve, though single readings scatter; tested in HEK293 cells; about a fifth of its hits are not listed in these tables; note: % is set by controls: 0 for no effect and ±100 for the full control effect; luciferase read-out
# Lassa entry inh – Lassa virus entry inhibition; actives 1.2% (n = 300,000); Potency, µM (titrated, usually from 37.9 µM), for inactives: top-dose activity change, negative = inhibition, usual class: inhibitors; Lassa virus pseudotype entry inhibition, cell reporter; control for the full effect not named in the record; active means well fitted inhibition curve with a large enough effect; inconclusive means small, poorly fitted or top-dose-only effect, or effect the other way; inactive means flat fitted curve, though single readings scatter; tested in HEK293 cells; note: % is set by controls: 0 for no effect and ±100 for the full control effect; nearly all actives have a fitted effect of over 50% in size; luciferase read-out
# RE007 growth inh – less growth of the S. pombe RE007 Vpr strain | S. pombe RE007 Vpr strain, BacTiter-Glo ATP luminescence, 24 h; control for the full effect not named in the record | Potency, µM (top dose mostly 92.2 µM), inactives show at the top dose activity change, negative = less growth | actives 0.21% (n = 360,000) | AID 651644; active = well fitted falling curve with a large enough effect; inconclusive = small, poorly fitted or top-dose-only effect; inactive = no such curve, though single readings can be large or run the other way;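 note: % is set by controls: 0 for no effect and ±100 for the full control effect; nearly all actives have a fitted effect of over 50% in size; the assay follows cell death caused by Vpr and the record does not say whether a fall means rescue or toxicity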
#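 Fission yeast RE007 carrying one integrated HIV-1 vpr copy, seeded at OD 0.01 in PMG+AL medium with 23 nL pinned compound. Grown 24 h at 30 degrees; viability read by BacTiter-Glo luminescence after 5 min.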
# NS1 function inh – influenza NS1 inhibition; S. cerevisiae slowed by influenza A NS1, growth recovery by OD600; Potency, µM (titrated, usually from 46.1 µM), inactives show top-dose activity, positive = more growth; actives 0.4% (n = 270,000); AID 2326; note: actives are rising curves; nearly all actives have a fitted effect of over 50% in size
#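 A cell-based growth assay was used: compounds that relieve NS1-induced slow growth of budding yeast raise OD600. Assay medium was yeast nitrogen base with ammonium sulphate and -URA supplement, pH 6.0, with 2% galactose.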
# An asterisk follows results filed as active; ? = inconclusive; / = not tested or not shown; & = joins results of further samples; [ ] = another dose, or the depositor's remark. Unless noted, calls come from the whole dose curve; as a rule, active means well fitted rising curve with a large enough effect; inconclusive means small, poorly fitted or top-dose-only effect; inactive means no such curve, though single readings can be large or run the other way. Potency is the fitted concentration of half-maximal effect.
SMILES,SARS PLpro yeast,Cruzain inh noDet,Cruzain inh Det,2A StopGo,MARV entry inh,Lassa entry inh,RE007 growth inh,NS1 function inh
C[C@H]1C=C(C(=O)N2CCN(Cc3ccc4c(c3)OCO4)CC2)O[C@@H](OCc2ccc(CO)cc2)C1,0%,/,/,-23%,/,/,3%,0%
Cc1ccc(C)c(NC(=O)Cn2c(=O)n(Cc3nc(C)no3)c(=O)c3cc4c(cc32)OCO4)c1,/,20%,-2.3%,-14%,/,5%[46.1 µM],/,/
O=C1NC(Nc2nc3ccccc3s2)(C(F)(F)F)C(=O)N1C1CCCCC1 (centres undefined),-25%,9%,-13%,/,6.5µM*,-24%,-3%,15%
O=C(COc1ccccc1)N=C1SC2CS(=O)(=O)CC2N1c1ccccc1F (centres undefined),3%,/,/,3%,-7%[46.1 µM],15%[46.1 µM],6%,-3%
Cc1cc(=O)oc2cc(OCC(=O)N3C[C@H]4C[C@@H](C3)c3cccc(=O)n3C4)ccc12,0%,/,/,-18%,/,/,-13%,-3%
Cc1ccc(CNC(=O)c2ccc(Cn3nc(C)c(Cl)c3C)o2)cc1,-40%,?,-13%,-23%,?,-29%,-15%,-199%
CCN(CC)c1ccc(NC(=O)CCS(=O)(=O)c2ccc(Br)cc2)c(C)c1,0%,/,/,-23%,/,/,11%,-1%
C=CCn1c2ccccc2c2nnc(SCC(=O)NC(C(=O)OC)C(C)C)nc21 (centres undefined),-11%,-21%,-11%,-16%,-6%&0%,-11%,1%,-20%
CC12CCC(O)CC1=CCC1C2CCC2(C)C(c3ccn[nH]3)CCC12 (centres undefined),/,/,/,?,?,?,22%,/
CSCC[C@H](N)C(=O)NC[C@H]1CC[C@H](C(=O)N[C@@H](Cc2ccccc2)C(=O)O)CC1,2%,/,/,0%,/,/,12%,8%
COc1ccccc1C1NC(=O)NC(C)=C1C(=O)OCc1ccccc1 (centres undefined),-4%,/,/,?,?,?,-2%,8%
COc1ccc2cc(C(=O)N3CCCC(Nc4ccc(F)cc4)C3)n(C)c2c1 (centres undefined),0%,/,/,?,22%,-1%,2%,-5%
Cc1nn2c(=O)cc(COC(=O)c3ccc(NC(=O)c4ccc(C(C)(C)C)cc4)cc3)nc2s1,/,-9%,-1.2%,12%,/,?,/,/
COC1CCCN(Cc2cn(C)nc2-c2ccc(Oc3ccccc3)cc2)C1 (centres undefined),-1%,/,/,1%,?,5%[46.1 µM],13%,-5%
Cc1cc(C)nc(Nc2ccc(Cl)cc2C)n1,-7%,/,/,16%,/,/,2%,-18%
COc1ccccc1CN1CCCCCC1,0%,/,/,-28%,-2%,22%,-4%,15%
COc1ccc2c(c1)CC/C(=C/c1cc(OC)c(OC)c(OC)c1)C2=O,-23%,/,/,-15%,-11%[46.1 µM],6%[46.1 µM],10%,/
CC(=O)c1sc(NC(=O)c2ccc(Cn3cc(Br)cn3)o2)nc1C,-7%,-20%,4.3%,7%,6%,3%,-9%,-1%
CCOC(=O)C1CCN(CC(=O)Nc2c(C(=O)OC)[nH]c3cccc(C)c23)CC1,1%,-3%,-4.3%,-8%,-8%,-3%,2%,-1%
COc1ccc(NC(=O)c2ccc3oc(=O)c(S(=O)(=O)c4ccc(F)cc4)cc3c2)cc1OC,/,1%,-0.5%,?,-14%[46.1 µM],-3%[46.1 µM],/,/
O=[N+]([O-])c1cc2c(cc1[N+](=O)[O-])OCCOCCOCCOCCO2,-1%,/,/,-18%,-11%,-42%,7%,/
C=CCOc1ccc(/C=C/C(=O)OCC(=O)N2CCN(C(C)=O)CC2)cc1,2%,/,/,13%,?,?,7%,/
Cc1cc(/C=C2\C(=O)NC(=O)N(Cc3ccco3)C2=O)c(C)n1-c1ccc(O)cc1,10%,/,/,33%[activator],-16%[46.1 µM],0%[46.1 µM],-4%,2%
O=S(=O)(Nc1cccc(S(=O)(=O)N2CCOCC2)c1)c1ccc2c(c1)OCCO2,0%,/,/,33%[activator],2%[46.1 µM],-16%,0%,/
Cc1ccc(NC2CCCN(C(=O)c3cn4cc(Cl)ccc4n3)C2)cc1C (centres undefined),6%,/,/,0%,/,/,-1%,-13%
O=S(=O)(CCc1nc2ccccc2o1)c1ccc(Cl)c(Cl)c1,7%,6%,-1.2%,-10%,-4%,-16%,4%,-2%
Cc1ccccc1-c1noc(-c2ccc(Cl)cc2)n1,-7%,?,1.8%,44%[activator],?,26%,5%,-4%
Cc1cc(C(=O)Nc2nc3ccc(Cl)cc3s2)nn1C,0%,/,/,2%,?,?,-14%,9%
Cc1ccccc1NC(=O)CSc1nn2c(=O)c(C)nnc2s1,-1%,/,/,-13%,2%,21%,-6%,/
COc1cccc(NC(=O)CN(C)C(=O)CCCc2nc3ccccc3s2)c1,2%,/,/,-13%,1%,-14%,0%,/
CCOc1cccc(NC(=O)CSc2ncc(-c3ccccc3)[nH]2)c1,/,-1%,-11%,36%[activator],12%[46.1 µM],-5%[46.1 µM],/,/
CSc1ncccc1C(=O)N1CCN(S(=O)(=O)c2ccc(C)cc2)CC1,-6%,/,/,-18%,0%[46.1 µM],-23%,-5%,8%
CCc1ccc(C(=O)c2cn(Cc3ccccc3)c3cc(OC)c(OC)cc3c2=O)cc1,/,?,-11%,-27%,?,-7%[46.1 µM],/,/
Cc1ccc(S(=O)(=O)Nc2cccc(C(=O)NCCCN3CCCC3=O)c2)cc1F,7%,/,/,9%,-27%,-6%,4%,/
COc1cccc(CN(C)C(=O)c2cc(S(=O)(=O)N3CCN(c4ccccc4)CC3)ccc2Cl)c1,-3%,/,/,?,?,?,?,?
Cc1ccc(C)c(N2CCN(S(=O)(=O)c3cc(C(=O)Nc4cc(Cl)cc(Cl)c4)ccc3F)CC2)c1,/,-12%,0.5%,-9%,/,29%[46.1 µM],/,/
CCOc1ccc(/C(O)=C2/C(=O)C(=O)N(CCOCCO)C2c2ccc(F)cc2)cc1 (centres undefined),-1%,-1%,-4.2%,0%,?,-2%,7%,-10%
Cc1ccc(NC(=O)CNCCCN2CCOCC2)cc1S(=O)(=O)N1CCCCC1,1%,/,/,-17%,/,/,-3%,7%
Cc1nn(C(C)(C)C)c(N)c1-c1ccccc1,-8%,5%,-1.1%,-3%,5%,20%,-27%,12%
CC(=O)c1c(N(C)C)ccnc1C(F)(F)F,-1%,1%,2.6%,-21%,4%,-18%,-2%,0%
COc1cccc(-c2ccc3c(N)c(C(=O)c4ccc(Br)cc4)sc3n2)c1,/,7.9µM*,-2.6%,-16%,-14%[46.1 µM],?,/,/
N#Cc1c(NC(=O)Cn2cnc3ccccc3c2=O)oc(-c2ccccc2)c1-c1ccccc1,2%,25µM*,1.3%,-20%,?,-5%,-7%,-23%
O=C(Nc1c(F)cccc1F)C(c1ccccc1)c1ccccc1,/,/,/,27%,-6%[46.1 µM],24%,10%,/
CC(C)N1CCC(=NNC(=O)c2ccc(Br)o2)CC1,1%,-10%,3.3%,26%,?,0%,8%,-1%
CCCC(=O)Nc1ccc(C(=O)n2ccc(C)n2)cc1,-1%,/,/,-21%,-12%,2%,18%,-5%
CCCn1nc(C(=O)NNC(=O)c2ccc(OC(F)F)cc2)c2ccccc2c1=O,1%,/,/,-9%,2%[46.1 µM],0%,-14%,/
O=C(CN1C(=O)CCC1=O)NNc1ccc2ccccc2c1,-2%,/,/,-3%,?,-22%,3%,-6%
CCN(CC)c1ccc(S(=O)(=O)N2CCOCC2)cc1NC(=O)COC(=O)c1ccco1,4%,/,/,33%[activator],1%[46.1 µM],-4%,-1%,/
Cn1nc(C(F)(F)F)c(CN2CC(C)(C)C2=O)c1N1CCOCC1,-1%,/,/,-11%,4%[46.1 µM],-20%,-3%,-3%
CC(=O)c1cccc(NC(=O)NNC(=O)CCC(=O)Nc2ccc(C)c(C)c2)c1,3%,/,/,-11%,-6%[46.1 µM],-11%,0%,/
# Next section
SMILES,SARS PLpro yeast,Cruzain inh noDet,Cruzain inh Det,2A StopGo,MARV entry inh,Lassa entry inh,RE007 growth inh,NS1 function inh
Cn1cc(CN2CCN(CC(C)(C)C)C(CCO)C2)c2ccccc21 (centres undefined),-1%,/,/,-9%,?,-19%[46.1 µM],-16%,40%
CCOc1ccc(CN2CCN(C(=O)Cc3ccccc3)CC2)cc1,5%,/,/,0%,/,/,-12%,11%
c1ccc(Nc2ccnc(Nc3ccccc3)n2)cc1,-2%,/,/,-15%,?,-18%[46.1 µM],-11%,-58%
O=C(O)CCC1(CCC(=O)O)c2ccccc2-c2ccccc21,1%,/,/,-2%,-15%[46.1 µM],7%[46.1 µM],-12%,28%
CC(C)(CO)N=C1NS(=O)(=O)c2cc([N+](=O)[O-])ccc21,22%,7%,-0.7%,4%,-12%,?,-9%,14%
COc1ccc(Cc2nnc(NS(=O)(=O)c3ccc(Cl)cc3)s2)cc1OC,-1%,/,/,10%,?,3%[46.1 µM],2%,11%
CCOc1ccc(CCNC(=O)CCn2ccc3cc(S(=O)(=O)N4CCCC4)ccc32)cc1,-6%,/,/,-29%,/,/,0%,-3%
Nc1ncc(Br)cc1S(=O)(=O)NCCC(=O)NCCc1ccc(Cl)cc1,-2%,/,/,15%,/,/,-4%,-1%
CCn1c(Cc2ccc(OC)cc2)nnc1SCC(=O)NC1CCCCC1,-1%,8%,-0.6%,-7%,12%[46.1 µM],?,-4%,-3%
Cc1ccccc1NC(=S)NNC(=O)c1ccoc1C,0%,3%,4.7%,78%[activator],?,49%[14.3 µM],-13%,1%
CCOc1cccc2sc(Cl)nc12,0%,/,/,-4%,?,?,-16%,0%
COc1cc(C=NNc2nc3c([nH]2)c(=O)n(C)c(=O)n3C)ccc1O,/,/,/,-18%,-5%[46.1 µM],10%[46.1 µM],-2%,/
CS(=O)(=O)N1CCC(C(=O)Nc2cc(Cl)cc(Cl)c2)CC1,0%,/,/,-30%,16%[46.1 µM],0%,8%,/
O=C(N/N=C/c1ccc(OCc2ccccc2)cc1)c1ccc(O)cc1,-1%,/,/,6%,22%[46.1 µM],?,16%,/
Cc1cc(C)n(-c2ccc(NC(=O)C3CCCCN3C(=O)c3sccc3C)cc2)n1 (centres undefined),3%,/,/,?,?,3%,-5%,-3%
O=S(=O)(NCCc1csc(-c2ccccc2)n1)c1cccnc1,-6%,/,/,34%[activator],/,/,-9%,-6%

# High-throughput results as filed in PubChem.
